# Ecoli rRNA inh: inhibits bacterial ribosomal RNA function over humanized ribosomes. E. coli WT GFP vs humanized-ribosome RFP mutants, fluorescence, 24 h; active compounds read low; DMSO median 0, no signal -100. GFP signal change (wild-type ribosome), % (no concentration beside the values). hit rate 1.6% among 350,000. AID 720706;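 active = significant combined selectivity score with lowered wild-type GFP, culture density cut under 30%, mutant RFP and density less affected; inactive = any of these conditions unmet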; note: one replicate is shown; some compounds called inactive have numbers as strong as hits
# MLL AF4-AF9 inh: MLL-AF4/AF9 protein interaction inhibition; AlphaScreen, biotin-AF4 peptide binding to FLAG-AF9; inhibition, % at 10 µM; AID 651704; P42568; hit rate 0.47% among 350,000;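 active = every replicate reaching a set inhibition limit, whatever the replicate mean, cut at about 25% in these data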;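 note: 0% = plate neutral control median and 100% = total signal loss; the record names both 10 and 1 µM as test concentration; the first replicate is given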
# Target sequence (P42568 whole entry, looked up): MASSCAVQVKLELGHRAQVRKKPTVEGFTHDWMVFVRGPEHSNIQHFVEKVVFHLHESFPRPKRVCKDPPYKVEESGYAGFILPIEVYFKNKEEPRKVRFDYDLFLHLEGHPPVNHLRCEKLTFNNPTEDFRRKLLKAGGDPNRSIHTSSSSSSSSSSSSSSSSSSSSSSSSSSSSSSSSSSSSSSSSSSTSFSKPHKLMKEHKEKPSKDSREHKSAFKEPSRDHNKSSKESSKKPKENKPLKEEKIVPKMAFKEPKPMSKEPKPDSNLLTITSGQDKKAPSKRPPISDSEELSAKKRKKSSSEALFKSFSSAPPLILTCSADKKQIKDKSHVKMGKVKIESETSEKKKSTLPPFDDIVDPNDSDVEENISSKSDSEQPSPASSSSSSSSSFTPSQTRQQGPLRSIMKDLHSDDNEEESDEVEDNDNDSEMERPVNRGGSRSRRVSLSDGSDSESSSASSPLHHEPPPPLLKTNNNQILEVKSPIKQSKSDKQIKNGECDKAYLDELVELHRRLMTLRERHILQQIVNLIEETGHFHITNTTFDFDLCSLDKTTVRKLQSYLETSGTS
# Ecoli rRNA inh OD600: also measured in Ecoli rRNA inh; calls as there; OD600 change, %; measured here: OD600 growth;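 optical density of the mix in the first replicate; 0 = DMSO median and -100 = no signal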
# Ecoli rRNA inh RFP: recorded beside Ecoli rRNA inh, whose call it bears; RFP signal change, %; measured here: RFP humanized mutant strains;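 first replicate; 0 = DMSO median and -100 = no signal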
# Starred values were filed as active, the others as inactive; & = joins results of further samples; ! = not confirmed by another sample.
SMILES,Ecoli rRNA inh,Ecoli rRNA inh OD600,Ecoli rRNA inh RFP,MLL AF4-AF9 inh
Cc1noc(C)c1NC(=O)Nc1cccc2c1O[C@H](CN(C)S(=O)(=O)c1ccc(F)cc1)[C@H](C)CN([C@@H](C)CO)C2=O,-3,-8,-1.5,-2.7
C[C@H](CO)N1C[C@H](C)[C@@H](CN(C)S(=O)(=O)c2ccccc2)Oc2ccc(NC(=O)CCCCCC(=O)Nc3ccccc3N)cc2C1=O,-7,2,-0.5,-4.1
COc1ccc(S(=O)(=O)Nc2ccc3c(c2)C(=O)N([C@H](C)CO)C[C@@H](C)[C@@H](CN(C)S(C)(=O)=O)O3)cc1,2,-3,1.0,-10
COc1ccccc1-c1ccc2c(c1)O[C@@H](CN(C)S(=O)(=O)c1ccccc1)[C@@H](C)CN([C@H](C)CO)S2(=O)=O,-4,-7,-1.5,-0.6
COc1ccccc1CN1C[C@H](C)[C@@H](OC)CN(C)C(=O)c2cc(NC(C)=O)ccc2OC[C@@H]1C,3,2,-1.9,-6.6
COCc1cn(CC[C@@H]2CC[C@@H](NC(=O)c3ccncc3)[C@H](CO)O2)nn1,1,-6,-4.1,-1.4
COc1ccccc1CNC(=O)C[C@H]1CC[C@@H]2[C@H](COC[C@@H](O)CN2C(=O)Nc2ccc(Cl)cc2)O1,-53,-73,-15,0.1
O=C(Nc1ccc(F)cc1)N[C@H]1CC[C@H](CCNS(=O)(=O)c2cccc(Cl)c2)O[C@@H]1CO,-17*!,-27*!,4.0*!,4.0&-0.6
Cn1cnc(S(=O)(=O)N[C@H]2CC[C@H](CC(=O)NCC3CC3)O[C@H]2CO)c1,5,6,-0.1,-1.4
COc1ccc2c3c(n(C)c2c1)[C@H](CO)N(C(=O)c1ccc(F)cc1)CC31CN(CC2CCOCC2)C1,4,21,2.2,13
CO[C@@H]1CN(C)C(=O)c2ccc(NC(=O)CN(C)C)cc2OC[C@@H](C)N(C(=O)C2CCOCC2)C[C@H]1C,1,-2,0.9,-5.1
C[C@H]1CN([C@@H](C)CO)C(=O)Cc2cc(NS(=O)(=O)c3ccc(F)cc3)ccc2O[C@H]1CN(C)Cc1ccncc1,0,-10,-1.7,-2.0
NCC[C@H]1CC[C@@H](NC(=O)Cc2ccncc2)[C@H](CO)O1,2,13,-1.0,-1.9
Cc1ccccc1S(=O)(=O)N1C[C@H](O)COC[C@@H]2O[C@@H](CC(=O)N3CCCCC3)CC[C@H]21,1,-3,0.3,-1.5
OC[C@@H]1[C@@H](c2ccc(-c3ccc(F)cc3)cc2)[C@@H]2CN(Cc3ccccn3)CCCCN12,-62,-75,-16,1.7
C[C@H]1CN([C@@H](C)CO)C(=O)c2c(c3ccccc3n2C)-c2ccccc2CO[C@H]1CN(C)Cc1ccc(O)cc1,-3,-8,9.0,0.3
COc1cc(CNC(=O)Nc2nnc([C@H]3C[C@H](O)[C@@H](CO)O3)s2)cc(OC)c1OC,3,18,-3.1,-0.9
CN1C(=O)c2cc(NC(=O)C3CC3)ccc2OC[C@H]2O[C@H](CC(=O)NCC3CCCCC3)CC[C@@H]21,-1,4,-0.7,0.6
COc1ccc(NC(=O)N(C)C[C@@H]2Oc3ccc(NS(=O)(=O)c4ccc(OC)cc4)cc3C(=O)N([C@@H](C)CO)C[C@H]2C)cc1,2,-1,-1.8,-4.0
CO[C@H]1CN(C)C(=O)c2cc(NS(=O)(=O)CC(F)(F)F)ccc2OC[C@H](C)NC[C@H]1C,2,7,-1.4,-1.2
CCCC(=O)Nc1ccc2c(c1)OC[C@@H](C)N(C(=O)CN(C)C)C[C@H](C)[C@H](OC)CN(C)C2=O,1,6,0.1,1.7
CCCCNc1c(-c2cc3ccccc3o2)nc2nc(C)cc(C)n12,0,11,4.5,0.0
C[C@@H]1CCCCO[C@H](CN(C)C(=O)CCCN(C)C)[C@H](C)CN([C@H](C)CO)C(=O)c2cc(NC(=O)c3ccccc3)ccc2O1,-1,1,-1.4,-4.3
CCCNC(=O)N1C[C@H]2[C@@H](c3ccccc31)[C@@H](CO)N2Cc1cccc(OC)c1,1,6,-1.5,-1.3
O=C(C[C@@H]1C[C@@H]2c3cc(NC(=O)Nc4ccccc4F)ccc3O[C@@H]2[C@H](CO)O1)NC1CCCCC1,-7,8,-3.7,-18

# Next section:
SMILES,Ecoli rRNA inh,Ecoli rRNA inh OD600,Ecoli rRNA inh RFP,MLL AF4-AF9 inh
COc1ccc(S(=O)(=O)N(C)C[C@@H]2Oc3c(NS(=O)(=O)c4ccc(C)cc4)cccc3C(=O)N([C@@H](C)CO)C[C@@H]2C)cc1,-2,-3,1.6,3.2
COc1ccccc1CNC(=O)C[C@H]1C[C@@H]2c3cc(NC(=O)CN(C)C)ccc3O[C@@H]2[C@H](CO)O1,4,13,-2.5,0.0
C=Cn1cc(CNC[C@H]2O[C@@H](n3cc(C)c(=O)[nH]c3=O)C[C@@H]2O)c(C)n1,8,5,-1.7,-5.7
CCC(=O)N1C[C@H](C)[C@H](OC)CN(C)C(=O)c2cc(NC(=O)C3CCOCC3)ccc2OC[C@H]1C,0,1,-1.3,-0.1
CCS(=O)(=O)NCC[C@H]1CC[C@H](NC(=O)C2CC2)[C@@H](CO)O1,2,-1,0.4,-6.2
COCC#Cc1ccc([C@H]2[C@H](CO)N3C(=O)CN(C(=O)CN4CCOCC4)C[C@@H]23)cc1,6,7,-5.3,-2.7
CC(C)CC#Cc1ccc2c(c1)O[C@H](CN(C)C(=O)NC1CCCC1)[C@H](C)CN([C@@H](C)CO)S2(=O)=O,-6,-12,-1.0,-1.0
N#C[C@@H]1[C@H](c2ccccc2C2=CCCCC2)[C@@H](CO)N1C(=O)C1CCOCC1,-4,-1,0.9,1.3
O=C(C[C@@H]1C[C@H]2c3cc(NS(=O)(=O)c4ccc(F)cc4)ccc3O[C@H]2[C@@H](CO)O1)NCc1ccccc1F,-6,-20,-0.7,2.7
CN(C)CC(=O)N1[C@H](CO)[C@@H](c2ccccc2)C12CN(C(=O)c1ccc(F)cc1)C2,-2,4,-1.0,-1.8
COCC(=O)Nc1ccc2c(c1)C(=O)N(C)[C@@H]1CC[C@H](CC(=O)NCCCN(C)C)O[C@H]1CO2,4,11,-2.2,-14
CC1CC(C)(C)CC2(C1)NC(=O)N(CC(=O)OCC(=O)Nc1cc(S(=O)(=O)N3CCCCC3)ccc1Cl)C2=O (configuration not stated),7,15,-4.0,1.4
O=C1NC[C@H](CCCCN2CCN(CCC3CCCCC3)C(=O)C2=O)N(CCc2ccc(O)cc2)C1=O,8,9,4.7,4.1
COc1ccc(CN(C)C[C@@H]2OCCCC[C@@H](C)Oc3ccc(NC(=O)Nc4ccc(C(F)(F)F)cc4)cc3C(=O)N([C@H](C)CO)C[C@@H]2C)cc1,-3,12,0.5,0.9
COCCNC(=O)C[C@@H]1CC[C@H]2[C@@H](COc3ccc(NC(=O)c4cnccn4)cc3C(=O)N2C)O1,0,2,-0.2,-1.8
COc1ccc(C(=O)NCCNc2nc3cc(C)cc(C)c3cc2C#N)c(OC)c1,1,-1,0.2,1.0
C[C@@H]1CN([C@H](C)CO)C(=O)c2c(c3ccccc3n2C)-c2ccccc2CO[C@H]1CN(C)S(=O)(=O)c1ccc(F)cc1,1,3,0.0,2.5
O=C(C[C@@H]1CC[C@H](NC(=O)C2CCOCC2)[C@@H](CO)O1)Nc1ccc(-c2ccccc2)cc1,0,1,-1.2,-1.1
O=C(COC(=O)CCC(=O)c1cccs1)NC1CCCCC1,5,6,-3.2,-1.8
Cc1noc(C)c1S(=O)(=O)Nc1ccc2c(c1)C(=O)N([C@@H](C)CO)C[C@H](C)[C@H](CN(C)Cc1ccc(-c3ccccc3)cc1)O2,1,-23,12,11
N#C[C@@H]1[C@H](c2ccccc2C2=CCCCC2)[C@H](CO)N1C(=O)NC1CCCC1,-13,-59,17,-0.8
CCCNC(=O)N[C@@H]1CC[C@H](CCn2cc(C3CCCCC3)nn2)O[C@@H]1CO,-1,-5,-1.4,-11
O=C(c1ccccn1)N1C[C@@H]2[C@H](c3ccccc31)[C@H](CO)N2C(=O)Nc1ccccc1F,4,5,-2.7,-9.3
Cc1ccc(-c2cnc3c(c2)C(=O)N([C@@H](C)CO)C[C@@H](C)[C@@H](CN(C)C(=O)Cc2ccccc2)O3)cc1,-1,-7,1.1,-1.3
CS(=O)(=O)Nc1ccc2c(c1)[C@@H]1C[C@H](CC(=O)NCc3ccccn3)O[C@H](CO)[C@@H]1O2,8,5,-1.4,-1.0

# Molecules from the list above that have a cyano group (3):
SMILES,Ecoli rRNA inh,Ecoli rRNA inh OD600,Ecoli rRNA inh RFP,MLL AF4-AF9 inh
N#C[C@@H]1[C@H](c2ccccc2C2=CCCCC2)[C@@H](CO)N1C(=O)C1CCOCC1,-4,-1,0.9,1.3
COc1ccc(C(=O)NCCNc2nc3cc(C)cc(C)c3cc2C#N)c(OC)c1,1,-1,0.2,1.0
N#C[C@@H]1[C@H](c2ccccc2C2=CCCCC2)[C@H](CO)N1C(=O)NC1CCCC1,-13,-59,17,-0.8

# Three compounds picked at random from those above:
SMILES,Ecoli rRNA inh,Ecoli rRNA inh OD600,Ecoli rRNA inh RFP,MLL AF4-AF9 inh
COc1ccc(CN(C)C[C@@H]2OCCCC[C@@H](C)Oc3ccc(NC(=O)Nc4ccc(C(F)(F)F)cc4)cc3C(=O)N([C@H](C)CO)C[C@@H]2C)cc1,-3,12,0.5,0.9
O=C(c1ccccn1)N1C[C@@H]2[C@H](c3ccccc31)[C@H](CO)N2C(=O)Nc1ccccc1F,4,5,-2.7,-9.3
C=Cn1cc(CNC[C@H]2O[C@@H](n3cc(C)c(=O)[nH]c3=O)C[C@@H]2O)c(C)n1,8,5,-1.7,-5.7

# The list goes on:
SMILES,Ecoli rRNA inh,Ecoli rRNA inh OD600,Ecoli rRNA inh RFP,MLL AF4-AF9 inh
O=C(C[C@@H]1C=C[C@@H](NC(=O)CN2CCOCC2)[C@H](CO)O1)NCc1cccc(F)c1,-1,0,-0.2,0.4
CN(C)C(=O)c1cccc(-c2cccc(-c3nc(C(=O)N4CCCCC4)cc4c3[C@@H](CCO)N([S@](=O)C(C)(C)C)C4)c2)c1,-3,1,16,-3.8
COc1cccc(NC(=O)N[C@H]2C=C[C@H](CC(=O)N3CCOCC3)O[C@@H]2CO)c1,-2,-3,1.4,-0.7
C[C@@H]1CN([C@@H](C)CO)C(=O)c2cc(NS(=O)(=O)c3ccc(Cl)cc3)ccc2O[C@@H](C)CCCCO[C@H]1CN(C)C(=O)CCC(F)(F)F,0,-11,-2.2,-3.1
O=C(Nc1ccccc1)N[C@H]1CC[C@@H](CCn2cc(-c3ccccc3F)nn2)O[C@H]1CO,-5,-2,2.8,-6.0
C[C@@H]1CN([C@H](C)CO)C(=O)c2cccc(NS(=O)(=O)c3cccs3)c2O[C@H]1CN(C)CC1CC1,1,8,-2.2,-1.3
C[C@H](NC(=O)C[C@@H]1C[C@@H]2c3cc(NS(C)(=O)=O)ccc3O[C@@H]2[C@H](CO)O1)c1ccccc1,2,8,0.2,-1.7
CO[C@H]1CN(C)C(=O)c2cc(NC(=O)C3CC3)ccc2OC[C@H](C)N(C(C)=O)C[C@H]1C,3,6,-0.7,0.1
C[C@@H]1CN([C@H](C)CO)C(=O)Cc2cc(NC(=O)CCC(F)(F)F)ccc2O[C@H]1CN(C)CC1CC1,0,-2,0.2,-3.7
O=S(=O)(c1ccccc1)N1CCCCN2[C@H](CO)[C@H](c3ccc(-c4cncnc4)cc3)[C@@H]2C1,-3,-2,-1.2,-0.8
CC(=O)OC[C@@H]1CN(Cc2ccccc2)C[C@H](n2cnc3c(NC4CCCC4)ncnc32)O1,0,-2,-2.1,0.4
CN(C)C(=O)c1cccc(-c2ccc([C@@H]3[C@H]4CN(C(=O)C5CCCCC5)CC(=O)N4[C@H]3CO)cc2)c1,-11,-9,8.0,-3.6
Cn1cnc(S(=O)(=O)N[C@@H]2C=C[C@H](CC(=O)NCC3CCCCC3)O[C@H]2CO)c1,1,5,-3.0,0.0
CCOC(=O)C1CCCN(C(=O)c2ccc3ccccc3c2)CC1 (configuration not stated),-12,-20,2.6,-1.1
C[C@H]1CN([C@@H](C)CO)C(=O)Cc2cc(NC(=O)Nc3ccc(F)cc3)ccc2O[C@H]1CN(C)CC1CC1,3,9,-1.3,10
COc1ccc(-c2cccc(-c3nc(C(=O)NCC(F)(F)F)cc4c3[C@H](CCO)N([S@@](=O)C(C)(C)C)C4)c2)cc1,-2,1,10.0,-2.0
C[C@H]1CN([C@@H](C)CO)C(=O)Cc2cc(NS(=O)(=O)c3ccc(Cl)cc3)ccc2O[C@@H]1CN(C)C(=O)Nc1ccc(F)cc1,-4,-2,0.0,2.4
CCCCCCCCN1C(=O)[C@@H](CC(=O)N2CCCC2)C[C@@]2(C(=O)OC)C1=C[C@H](C1CCCC1)O[C@@H]2C,21,11,2.6,2.6

# Limited to Ecoli rRNA inh and MLL AF4-AF9 inh, for five of the compounds above:
smiles,Ecoli rRNA inh,MLL AF4-AF9 inh
NCC[C@H]1CC[C@@H](NC(=O)Cc2ccncc2)[C@H](CO)O1,2,-1.9
Cc1ccccc1S(=O)(=O)N1C[C@H](O)COC[C@@H]2O[C@@H](CC(=O)N3CCCCC3)CC[C@H]21,1,-1.5
OC[C@@H]1[C@@H](c2ccc(-c3ccc(F)cc3)cc2)[C@@H]2CN(Cc3ccccn3)CCCCN12,-62,1.7
C[C@H]1CN([C@@H](C)CO)C(=O)c2c(c3ccccc3n2C)-c2ccccc2CO[C@H]1CN(C)Cc1ccc(O)cc1,-3,0.3
COc1cc(CNC(=O)Nc2nnc([C@H]3C[C@H](O)[C@@H](CO)O3)s2)cc(OC)c1OC,3,-0.9

# Assay outcomes (PubChem BioAssay)

# Not all compounds are listed; rates above refer to the full screens.
